# PABP FP inh = PABP-poly(A) binding inhibition; P11940; 290,000 tested, 1% active; inhibition, % at 35 µM; PABP-poly(A) RNA binding, fluorescence polarization;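 active = 50% or more with normal probe brightness, or confirmed in later tests; inconclusive = above 50% with abnormal brightness, or retests that disagree; inactive = below 50% or failed in later tests; about a fifth of its hits are not listed in these tables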;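 also: calls also rest on retests at 20 µM and on dose response follow-up; controls were probe without protein and protein plus probe with vehicle; some compounds called inactive have numbers as strong as hits; many hits fall short of the cut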
# Target sequence (P11940 whole entry, looked up): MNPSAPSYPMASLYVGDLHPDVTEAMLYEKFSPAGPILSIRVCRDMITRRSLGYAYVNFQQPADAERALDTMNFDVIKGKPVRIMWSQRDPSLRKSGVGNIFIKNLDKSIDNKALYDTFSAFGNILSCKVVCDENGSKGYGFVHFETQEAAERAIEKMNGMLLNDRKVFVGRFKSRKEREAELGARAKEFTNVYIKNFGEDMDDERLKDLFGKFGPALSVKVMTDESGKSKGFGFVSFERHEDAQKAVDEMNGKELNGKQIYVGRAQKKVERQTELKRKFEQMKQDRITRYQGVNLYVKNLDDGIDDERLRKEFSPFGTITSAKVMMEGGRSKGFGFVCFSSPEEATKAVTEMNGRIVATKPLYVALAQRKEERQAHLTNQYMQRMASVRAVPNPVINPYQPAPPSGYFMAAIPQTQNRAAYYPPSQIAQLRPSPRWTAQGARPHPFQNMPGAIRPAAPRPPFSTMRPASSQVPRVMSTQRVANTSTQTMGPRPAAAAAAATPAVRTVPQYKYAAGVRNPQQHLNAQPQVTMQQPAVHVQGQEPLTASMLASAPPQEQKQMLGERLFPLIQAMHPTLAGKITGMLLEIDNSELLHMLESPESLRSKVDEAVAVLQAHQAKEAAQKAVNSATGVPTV
# Env fusion inh = blocks HIV Env-driven cell-cell fusion; AID 651610; inhibition, % at 12.3 µM; 360,000 tested, 1.1% active; HeLa-JRFL Env/CEM21 cell fusion, luciferase;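 active = mean replicate inhibition score of at least 50 and every replicate individually at or above 50; inconclusive = only one of the two criteria met; inactive = mean below 50 and not all replicates reaching 50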;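 also: 0% = plate neutral controls and 100% = maraviroc near 300 nM; one replicate is shown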
# Yeast UUG start = yeast start codon fidelity modulation; S. cerevisiae UUG-firefly luciferase reporter, luminescence/redox ratio; activity score, % at 18.7 µM; 350,000 tested, 0.13% active; AID 602363;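 active = replicate mean at a twofold rise or more, about +100% in these data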;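 also: firefly luciferase made from a UUG start codon reports start codon fidelity; reporter light over untreated wells divided by growth signal over untreated wells; some hits fall short of that in this replicate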
# eIF4H inh = inhibitors of RNA binding by human eIF4H; Q15056; eIF4H fluorescence polarization binding assay; inhibition, % at 35 µM; 290,000 tested, 0.94% active;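 active = 50% or more with normal probe brightness, or confirmed in later tests; inconclusive = above 50% with abnormal brightness, or retests that disagree; inactive = below 50% or failed in later tests; about a fifth of its hits are not listed in these tables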;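 also: calls also rest on retests at 20 µM and on dose response follow-up; 0% = protein and probe with vehicle and 100% = probe without protein; strong numbers were not always called active; many hits fall short of the cut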
# MT1-MMP act inh = blocks activation of human MT1-MMP | 360,000 tested, 0.061% active | GFP/RFP ratio change, % at 20 µM | HT1080 RFP-PRO-GFP cells, GFP/RFP ratio fluorescence, overnight; percent of plate control window, DMSO zero;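 active = GFP/RFP ratio change of at least 30% with cell ATP level not reduced by more than half and red fluorescence within 50% of control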; also: strong numbers were not always called active
#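 Read-out: GFP/RFP fluorescence ratio; Test system: RFP-PRO-GFP reporter HT1080 cells; Compound dosing: single-point 20 µM compound, 1% DMSO; Times: overnight compound exposure at 37 °C.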
# Rce1 inhib = yeast Ras-converting enzyme inhibition. yeast membranes, quenched prenylated peptide cleavage fluorescence. Q03530. calls only. 290,000 tested, 0.27% active;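 active = fall in fluorescence gain of 50% or more versus controls, with final raw signal at or below 3038400; inconclusive = same 50% fall but final raw signal above 3038400; inactive = fall in fluorescence gain under 50%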;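 also: plate controls were neutral control wells for no effect and wells lacking membranes for full effect; tested at 10 µM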
# Target sequence (Q03530 whole entry, looked up): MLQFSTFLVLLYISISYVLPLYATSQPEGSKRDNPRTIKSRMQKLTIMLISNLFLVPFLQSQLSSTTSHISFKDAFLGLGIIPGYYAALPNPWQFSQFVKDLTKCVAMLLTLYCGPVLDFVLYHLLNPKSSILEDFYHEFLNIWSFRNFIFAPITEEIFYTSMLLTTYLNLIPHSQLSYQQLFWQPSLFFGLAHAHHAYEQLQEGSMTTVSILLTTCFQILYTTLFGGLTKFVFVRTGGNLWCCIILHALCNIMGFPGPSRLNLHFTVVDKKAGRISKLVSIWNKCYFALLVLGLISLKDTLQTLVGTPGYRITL
# CSC inhib = cancer stem cell inhibition; 300,000 tested, 1.1% active; inhibition, % at 7.5 µM; cancer stem cell-like cells viability, luminescence;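 active = mean at 75% or more and at least half the replicates too; inconclusive = mean and replicates disagree; tested in HMLE shEcad cells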;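 also: 0% = median of negative and 100% = median of positive control wells; the first replicate is given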
# MT1-MMP act inh RFP = recorded beside MT1-MMP act inh, whose call it bears; RFP signal change, %; measured here: RFP expression control read;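 0 = vehicle wells; hits needed this value within 50% of zero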
# Numbers without * were called inactive; i = inactive; u = inconclusive; x = no result given.
SMILES,PABP FP inh,Env fusion inh,Yeast UUG start,eIF4H inh,MT1-MMP act inh,MT1-MMP act inh RFP,Rce1 inhib,CSC inhib
COc1ccc(S(=O)(=O)Nc2nc(C(F)(F)F)cs2)cc1,36,x,6,-6,4,2,i,1
O=C(NCc1ccc(Cl)cc1)c1nccnc1CO,1,11,-15,5,-3,2,i,0
O=C(O)c1ccc(CNC(=O)c2ccc3c(c2)C(=O)N(Cc2cccnc2)C3=O)cc1,1,5,-15,-6,-1,1,i,14
Cc1ccc(Nc2c3c(nc4ncnn24)CCC3)cc1,-8,u,-25,-1,3,-1,i,0
CC(C)(C)OC(=O)C[C@@H]1C/C=C\C[C@@H](CC(=O)N[C@H](CO)Cc2ccccc2)C(=O)N2CCC[C@@H]2COC1=O,x,-26,8,x,0,-1,x,-20
COc1ccc(CN(C)S(=O)(=O)c2c(C)noc2C)cc1OC,x,2,-21,x,5,-3,x,-9
COc1cc(C(C)=O)ccc1OCC(=O)N1CCC(Cc2ccccc2)CC1,x,17,0,x,-1,-4,x,x
COc1n[nH]c2nncnc12,0,x,-12,10,3,2,i,4
c1ccc2c(-c3nnc4n3CCCCC4)cc(-c3ccncc3)nc2c1,-4,5,x,5,1,0,i,-5
OCC[C@H]1C[C@@H](O)[C@H](O)[C@@]2(OCc3ccccc32)O1,x,-24,-4,x,-3,-1,x,-3
CCCCc1ccc(NC(=O)c2ccc(N(C)S(C)(=O)=O)cc2)cc1,13,u,-3,-2,14,-21,i,-4
CC(C)C(NS(=O)(=O)c1ccc2c(c1)oc(=O)n2C)C(=O)N1CCN(Cc2ccccc2)CC1 (stereo not drawn),11,-26,-20,1,-3,3,x,x
CCCC(=O)c1c(C)c2ccccc2n1C,1,-302,-15,-11,0,0,i,17
Nc1ncnc2c1ncn2[C@@H]1O[C@H](CNCc2ccc(-n3cccn3)cc2)[C@@H](O)[C@H]1O,x,x,-6,x,4,5,x,11
COC(=O)CSc1nc2cc(C)cc(C)c2cc1C#N,26,x,-11,29,-33,-3,i,0
CN1CCN(C(=O)c2cc(-c3ccccc3)on2)CC1,-5,-43,-39,-2,-1,0,i,-24
O=C(NCCCc1ccccc1)c1cccc(NC(=O)C2CC2)c1,x,-21,-17,x,2,2,x,x
CCOc1ccccc1NC(=O)NCc1ccccc1F,1,-16,x,8,-3,-4,i,-16
O=C(Nc1cccc(F)c1)/C(=C\c1cccnc1)NC(=O)c1cccs1,2,-54,-16,-8,-3,-1,i,-3
COc1ccc(N2CCN(C(=O)COC(=O)CCS(=O)(=O)c3ccc(C)cc3)CC2)cc1,x,-8,-8,x,0,2,i,-4
COC(=O)N/N=C(C)/C=C/c1ccccc1,x,x,11,x,0,4,x,-13
O=[N+]([O-])c1cc(CN2CCN(c3cccc(C(F)(F)F)c3)CC2)c2cccnc2c1O,4,52,x,47,x,x,i,5
COC(=O)c1[nH]c2ccc(Br)cc2c1NC(=O)CN1CCN(C2CCCCC2)CC1,51*,44,-26,-12,3,2,x,21
O=C(Nc1ccccc1)/C(=C/c1ccccc1)NC(=O)c1ccco1,4,5,x,-2,3,-1,i,-5
O=C(CSc1oc(-c2cccs2)nc1S(=O)(=O)c1ccccc1)NC1CCCCC1,-6,31,x,-4,-5,-4,i,x
# (cont.)
SMILES,PABP FP inh,Env fusion inh,Yeast UUG start,eIF4H inh,MT1-MMP act inh,MT1-MMP act inh RFP,Rce1 inhib,CSC inhib
O=C(O)c1ccc(-c2noc(-c3ccccc3Cl)n2)cc1,x,-166,-58,x,5,6,i,1
O/N=C1\CC2(Cc3nonc31)OCCO2,6,x,-18,-6,1,6,i,-17
O=C(Nc1nc2ccccc2s1)Nc1ccc(F)cc1F,1,-89,-15,0,1,3,i,-11
COc1cc(-c2c(NC(=O)c3ccco3)oc3c(C)cccc3c2=O)cc(OC)c1OC,5,1,x,0,1,1,i,-3
Oc1ccc(-c2n[nH]c(=S)n2Cc2ccccc2)cc1,-7,x,-11,-3,9,-3,i,-2
CCSc1nnc(NC(=O)CSc2nc3c(c(=O)n2CCOC)SC(C)C3)s1 (stereo not drawn),-3,5,-10,-8,-6,-15,i,10
COc1cccc(C(C(=O)NC2CCCC2)N(C(=O)CNC(=O)c2ccco2)c2cccnc2)c1 (stereo not drawn),1,13,-17,1,1,0,i,-8
COc1cccc(C(=O)NCCn2ccc3ccccc32)c1,-3,-111,-17,-14,-2,-1,i,18
Clc1ccc(SCCCCn2ccnc2)cc1,7,x,x,9,4,-2,i,-1
COc1ccccc1N1CCN(C(CNS(=O)(=O)c2ccc(C)cc2)c2cccnc2)CC1 (stereo not drawn),-5,x,7,-16,-3,-3,i,8
COC(=O)c1cc(=O)nc(NN=C2c3ccccc3-c3ccccc32)s1,x,14,-21,x,28,-29,x,x
CC1(C)CC(NC(=O)C2CCN(S(=O)(=O)c3ccccc3C(F)(F)F)CC2)CC(C)(C)N1,2,-4,0,-6,0,5,i,-2
Cc1ccc(-n2nc3c(=O)n(CC(=O)NCCC4=CCCCC4)nc(C)c3c2C)cc1,x,7,-16,x,1,-22,i,-1
[NH-]c1ncnc2c1N=C[N+]2=CC=CCO,6,-5,-10,13,-3,8,i,-4
COc1cc(C2C(C#N)=C(N)N(c3sc4c(c3C#N)CCCC4)C3=C2C(=O)CC(C)(C)C3)cc(OC)c1OC (stereo not drawn),-3,x,-21,-6,-4,-2,i,52
O=C(Nc1ccc2c(c1)OCO2)c1ccccc1,8,-45,-33,2,1,6,x,1
O=C(CSc1nnc(-c2ccncc2)o1)Nc1nncs1,1,4,-6,5,1,1,i,x
CCn1nc(C)c(CN2CCCC(CNS(=O)(=O)c3ccc(OC)cc3)C2)c1C (stereo not drawn),-5,13,-13,-7,-1,6,i,2
COCCCNC(=O)Cn1ccc(N)nc1=O,x,-27,-16,x,3,1,x,7
CC(=O)c1ccc(N2CCN(S(=O)(=O)c3c(C)[nH]c(C)c3C(=O)N3CCCC3)CC2)cc1,11,18,-5,-6,-5,0,i,6
Cc1nc(N[C@@H](Cc2c[nH]c3ccccc23)C(=O)O)c2oc3ccccc3c2n1,3,x,1,-3,x,x,i,14
O=C(Nc1ccccc1)Nc1cccc(C(F)(F)F)c1,-7,17,-25,6,-4,-5,i,-1
CCOC(=O)N1CCN(C(=O)c2c(O)c3cccc4c3n(c2=O)CC4)CC1,34,x,-16,3,0,3,i,17
NS(=O)(=O)c1ccc(CCN=C(NS(=O)(=O)c2cccs2)c2ccccc2)cc1,-7,8,x,-6,-2,2,i,-17
CSCCC(=O)N1CCC(n2nccc2NC(=O)CCCc2ccccc2)CC1,18,0,-1,-3,-3,1,i,17
# Other entries
SMILES,PABP FP inh,Env fusion inh,Yeast UUG start,eIF4H inh,MT1-MMP act inh,MT1-MMP act inh RFP,Rce1 inhib,CSC inhib
CSc1ncnc2c1cnn2-c1ccc(C)cc1C,-4,-16,x,-4,-1,-1,i,2
Cn1c(=O)c2c(nc(CN3CCc4ccccc4C3)n2Cc2ccccc2)n(C)c1=O,-9,x,-14,-7,-9,-6,i,-14
CCOc1ccccc1NC(=S)NC(=O)c1ccco1,-7,-29,-13,-6,1,6,i,x
C=CCNc1oc(-c2cccc(F)c2)nc1C#N,x,-11,-32,x,4,1,x,x
O=C(NCc1cccc(Cl)c1)C1Cc2c(-c3cccc(F)c3)ccnc2O1 (stereo not drawn),x,-17,3,x,0,-9,x,x
CC1CC(C)CN(C(=O)C(NS(=O)(=O)c2ccc(Br)s2)c2ccccc2)C1 (stereo not drawn),10,5,-24,-2,-16,-13,i,16
C/C(=N\NC(=O)c1ccc(Cl)c(Cl)c1)c1ccc(Br)s1,-3,x,x,-3,7,6,i,-10
Cc1cc(C)c(S(=O)(=O)N2CCCOC2CNC(=O)C(=O)NCc2cccnc2)c(C)c1 (stereo not drawn),-10,-6,x,-8,4,5,i,3
CCOC(=O)[C@@H]1[C@H]2COc3ccc(Br)cc3[C@H]2N2C(=O)N(c3ccc(F)cc3)C(=O)[C@]12C,-4,-38,-10,3,-1,-1,i,-7
COc1cc(CN2CC(=O)N(c3ccc(C)c(Cl)c3)C2=S)cc(OC)c1OC,9,3,-3,0,-3,-8,i,2
COc1ccc(C(=O)Nc2nnc(SCC(=O)NC3CCCC3)s2)c(OC)c1,6,-7,-20,-6,-3,1,i,-15
O=C(C1CCCCC1)N1CCN(c2ccnc3cc(Cl)ccc23)CC1,1,57*,-4,1,-2,-22,i,-4
Cc1cc2nc(C)n(CCCNC(=O)Nc3ccc(C#N)cc3)c2cc1C,5,x,-7,-8,5,-3,i,-4
CNS(=O)(=O)c1cccc(C(=O)OCC(=O)Nc2nc(OC)cc(OC)n2)c1,x,-6,13,x,0,3,x,-6
O=C(Nc1ccccc1)OC1CCC2CC1CCC2OC(=O)Nc1ccccc1 (stereo not drawn),0,23,-22,3,-3,-10,i,68
CCOc1ccc(C(C(=O)NC2CCCCC2)N(C(=O)c2csnn2)C2CC2)cc1 (stereo not drawn),7,0,14,12,2,-3,i,1
CCc1ccc2oc(=O)cc(CN(C)Cc3ccccc3)c2c1,4,x,-4,4,-10,-9,i,-2
O=C(NCCc1cn2ccccc2n1)C1CCCCC1,-6,x,-18,1,0,5,i,-15
Cc1c(C(=O)N(C)CC(=O)Nc2cccc(F)c2)oc2c(Cl)cccc12,x,24,x,x,6,0,i,-12
Cc1ccc(C(=O)Cn2nc(C)c([N+](=O)[O-])c2C)c(C)c1,5,-6,x,6,0,1,i,-15
O=C(Nc1ccc(Cl)cc1)OCc1cc(-c2ccccc2Cl)on1,1,x,x,-6,1,1,i,-3
COc1ccc(S(=O)(=O)NCCSCc2cccc(C)c2)cc1Br,7,8,-17,2,-8,-3,i,20
CCn1c(SCC(=O)NC2CC2)nc2ccccc21,x,-11,4,x,1,5,x,x
Cc1cc(Cl)ccc1NC(=O)c1ccc2c(c1)OCO2,-6,-64,3,1,-2,-2,i,2
COc1cc(OC)c(C(=O)COc2ncnc3ccccc23)c(OC)c1,4,x,x,-2,3,1,i,-2

# Sorted by the number under MT1-MMP act inh (descending): 4 from the list above
SMILES	MT1-MMP act inh
C/C(=N\NC(=O)c1ccc(Cl)c(Cl)c1)c1ccc(Br)s1	7
COc1cc(OC)c(C(=O)COc2ncnc3ccccc23)c(OC)c1	3
CCOc1ccc(C(C(=O)NC2CCCCC2)N(C(=O)c2csnn2)C2CC2)cc1 (stereo not drawn)	2
CCOc1ccccc1NC(=S)NC(=O)c1ccco1	1

# The list goes on:
SMILES,PABP FP inh,Env fusion inh,Yeast UUG start,eIF4H inh,MT1-MMP act inh,MT1-MMP act inh RFP,Rce1 inhib,CSC inhib
Cc1cccc(N2CCN(Cc3nc(C4CC4)no3)CC2)n1,3,-15,-4,0,2,0,i,-4
Cc1cc(C)nc(SCCn2c(N3CCCCC3)nc3c2c(=O)n(C)c(=O)n3C)n1,-2,19,1,13,-1,7,x,-6
Cc1cc(=O)oc2c(C)c(OC(=O)c3ccco3)ccc12,0,-3,-10,5,-19,-1,i,-13
COc1ccc(CCNc2ccc(S(=O)(=O)N3CCN(C)CC3)cc2[N+](=O)[O-])cc1,x,4,-8,x,0,-9,i,55
CC(=O)c1ccc(N2CCN(S(=O)(=O)c3c(C(=O)N4CCCC4)c(C)n(C)c3C)CC2)cc1,-8,-2,-12,-6,-2,0,i,-8
CCOC(=O)N1CCC(NC(=O)c2ccc(CS(=O)(=O)c3c(Cl)cccc3Cl)o2)CC1,3,-13,0,-8,8,2,i,-7
CCN(C(=O)COC(=O)c1ccccc1Cc1ccccc1)c1c(N)n(Cc2ccccc2)c(=O)[nH]c1=O,x,-42,-12,x,-9,-7,x,x
CN1CCc2cc(O)c(O)cc2C(c2ccccc2)C1 (stereo not drawn),x,13,-16,x,2,-1,x,-6
CCN(CC)C(=O)CSc1nc(O)cc(=O)n1C,27,-92,12,-8,6,5,i,1

# From PubChem
